ALR H2O2 inh – human ALR oxidase inhibition via reduced H2O2; P55789; purified ALR, DTT oxidation, H2O2 HRP-luminol luminescence; inhibition, % (test concentration not listed); 290,000 tested, 3.8% active; AID 485317;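 active means mean and each replicate at 75% or more; inconclusive means only one of the two met; inactive means neither met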;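 further: stock transfer was 7.5 nL into about 7.5 µL; 0% = neutral wells and 100% = wells with inactivated enzyme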
Target sequence (P55789 whole entry, looked up): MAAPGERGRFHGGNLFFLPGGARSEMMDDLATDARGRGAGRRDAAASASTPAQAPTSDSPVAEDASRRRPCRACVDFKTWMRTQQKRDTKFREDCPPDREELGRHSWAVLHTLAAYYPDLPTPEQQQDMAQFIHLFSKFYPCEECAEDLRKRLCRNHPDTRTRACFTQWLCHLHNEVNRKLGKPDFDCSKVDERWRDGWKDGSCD
Calb FLC – affects C. albicans growth with fluconazole. growth inhibition, % (no concentration beside the values). 300,000 tested, 0.57% active. C. albicans CaCi-2 (fluconazole-resistant clinical isolate) + fluconazole, Alamar Blue growth, 48 h. AID 1979;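 active means most replicates above 75%; inconclusive means exactly half above 75%; inactive means most below 75%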;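 further: all wells also contain fluconazole at 8 µg/ml as a sub-toxic cotreatment; 0% = median of DMSO wells and 100% = median of geldanamycin control wells; wells of about 8 µL received 7.5 nL stock; the first replicate is given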
HNF4A DNA FP – change in binding of human HNF4 alpha to DNA; P41235; HNF4a-FITC DNA binding, fluorescence polarization, 1 h; 360,000 tested, 0.3% active; activity change, % at 10 µM; in the data active means activity change above about 30%, passing the limit was not always enough;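 further: controls were the assay level and a saturating level of protein; the project sought stronger binding though the title names inhibitors; some compounds called inactive have numbers as strong as hits; positive values seem to mean higher polarization but the record does not say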
Target sequence (P41235 whole entry, looked up): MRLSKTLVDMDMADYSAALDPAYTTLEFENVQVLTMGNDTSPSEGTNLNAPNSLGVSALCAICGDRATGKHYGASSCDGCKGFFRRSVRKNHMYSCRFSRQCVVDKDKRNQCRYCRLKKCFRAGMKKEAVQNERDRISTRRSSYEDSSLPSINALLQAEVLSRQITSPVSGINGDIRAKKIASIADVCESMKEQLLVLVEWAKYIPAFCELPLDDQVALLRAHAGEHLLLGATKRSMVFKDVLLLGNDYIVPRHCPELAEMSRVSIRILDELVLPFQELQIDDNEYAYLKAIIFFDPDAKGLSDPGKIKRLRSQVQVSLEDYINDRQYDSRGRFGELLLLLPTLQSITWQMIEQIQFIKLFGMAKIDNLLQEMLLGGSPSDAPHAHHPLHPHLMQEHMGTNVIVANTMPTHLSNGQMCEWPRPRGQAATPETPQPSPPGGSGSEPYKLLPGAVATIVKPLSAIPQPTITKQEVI
Vif A3G – HIV-1 Vif–A3G interaction blockers – biochemical, TR-FRET, GST-Vif 1-94, biotin-A3G peptide, dose response retest, primary screen (AID 1117319) | TR-FRET GST-Vif / biotin-A3G peptide binding; higher % means a stronger effect; test concentration not given here; strong numbers were not always called active | inhibition, %; hits with a dose series show IC50 in µM | 260,000 tested, 0.57% active;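 active means above the screen mean plus three standard deviations and confirmed in dose response; inconclusive means results disagree or hit not tested in dose response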;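 further: Vif residues 1-94 fused to GST binding biotinylated APOBEC3G peptide 110-148; 0% = full assay without inhibitor and 100% = GST in place of GST-Vif; retest series ran down from 100 µM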
LANA-H2B inh – blocks KSHV LANA binding to histone H2A/H2B; Q9QR71; cell-free LANA-H2A/H2B peptide, fluorescence polarization; inhibition, % (test concentration not listed); 320,000 tested, 0.6% active; AID 2629; in the data active means inhibition mostly above about 10%, no sharp cut-off; inactive means mostly below about 6.7%;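 further: stock transfer was 7.5 nL into about 10 µL; 0% = median of vehicle wells and 100% = median of positive control wells; one replicate is shown; the record names a cut of 25% in any replicate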
B2AR ag – human beta-2 adrenergic receptor agonism by FAP | P07550 | Am2.2-beta2AR cells, FAP receptor internalization, flow cytometry; reference of the scale not given here | response, % (test concentration not listed) | 340,000 tested, 0.43% active;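 active means response above a set limit, near 3 SD of response in nonfluorescent compounds, cut at about 42% in these data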;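 further: stock transfer was 100 nL into about 11 µL; a reference agonist was the positive control; negative values mostly stem from fluorescent compounds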
Target sequence (P07550 whole entry, looked up): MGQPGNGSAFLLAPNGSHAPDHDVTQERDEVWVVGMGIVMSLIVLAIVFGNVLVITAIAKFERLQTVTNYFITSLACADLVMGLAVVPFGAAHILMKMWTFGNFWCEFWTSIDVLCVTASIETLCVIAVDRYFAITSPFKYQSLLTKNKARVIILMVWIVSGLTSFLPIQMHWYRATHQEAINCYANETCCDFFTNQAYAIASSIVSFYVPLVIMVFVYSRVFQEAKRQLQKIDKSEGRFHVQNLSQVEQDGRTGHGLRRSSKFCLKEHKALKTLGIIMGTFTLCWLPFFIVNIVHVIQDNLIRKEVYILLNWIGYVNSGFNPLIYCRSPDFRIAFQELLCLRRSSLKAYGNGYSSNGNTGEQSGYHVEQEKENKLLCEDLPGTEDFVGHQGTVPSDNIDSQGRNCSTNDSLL
RanGTP-Imp inh – inhibitors of RanGTP-importin-beta interaction, primary screen, biochemical, FRET, CFP-Ran, YFP-importin-beta, homogeneous; inhibition, % (test concentration not listed); 300,000 tested, 1.1% active; AID 2216; cell-free CFP-Ran/YFP-importin-beta FRET ratio;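 active means most replicates above 15%; inconclusive means exactly half above 15%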;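 further: 0% = DMSO wells and 100% = Ran loaded with GDP instead of GTP; wells of about 40 µL received 100 nL stock; the first replicate is given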
Numbers without * were called inactive; ? = inconclusive; . = not tested or not shown; & = joins results of further samples; ! = repeats disagree. A portion of the library, so the mix of outcomes need not match the whole.

SMILES	ALR H2O2 inh	Calb FLC	HNF4A DNA FP	Vif A3G	LANA-H2B inh	B2AR ag	RanGTP-Imp inh
CCCCOC(=O)C1=C(N)OC2=C(C(=O)CCC2)[C@]12C(=O)Nc1ccccc12	-0.6	.	-0.4	-8.9%	1.8	5.5	-0.4
N=Cc1c(O)n(-c2ccc(C34CC5CC(CC(C5)C3)C4)cc2)c(=O)[nH]c1=O	-24.6	2.6	14.8	-5.2%	-1.5	7.5	4.7
CC(Cc1ccccc1)NC(=O)CN1CCCC1=O (configuration not stated)	-3.7	-6.4	0.9	5.0%	-3.9	0.3	?
O=C(c1ccc(Cl)cc1)C1CCCN(C2CCSCC2)C1 (configuration not stated)	-21.6	-13.7	2.3	4.8%	-0.5	0.0	-8.1
Cc1cc(OCC(=O)NCc2ccncc2)c2c3c(c(=O)oc2c1)CCCC3	0.1	-5.6	0.7	.	1.8	-15.1	2.1
C[C@]12CCC3C(CC[C@H]4C[C@H](N)CC[C@]34C)C1CC[C@H]2O (some centres not stated)	-39.8	-1.2	-1.1	-0.9%	0.9	-1.4	0.1
CCC(=Nc1ccc2c(c1)CCC2)c1c(O)n(-c2ccc(OC)cc2)c(=O)[nH]c1=O	.	2.6	-0.8	11.8%	1.9	4.7	-3.0
CCC1C(c2ccccc2)NC(c2ccccc2)CC1(O)c1ccc(F)cc1 (configuration not stated)	-22.4	34.2	1.4	-5.9%	-7.7	10.7	1.6
COc1ccc(CCNCc2ccccc2)cc1	-25.0	-1.4	-1.2	-10.2%	1.7	-4.2	2.9
CC(C)c1ccc(N2C(=O)NC(=O)/C(=C/c3cnc(-c4ccccc4)nc3)C2=O)cc1	16.2	-2.4	0.4	.	0.4	4.1	1.3
O=c1c2ccccc2nc(-c2ccco2)n1-c1ccncc1	-8.4	-2.8	4.4	-1.5%	-3.1	-2.8	-0.6
NC(N)=N/N=C/c1ccc(N(c2ccccc2)c2ccccc2)cc1	93.7*	93.6*	11.3	.	1.4	38.1	23.1*
O=C1C2CCCN2C(c2ccncc2)N1c1ccc(Cl)c(Cl)c1 (configuration not stated)	3.2	-17.2	1.3	-4.9%	3.8	8.5	-0.2
CCCCCn1c(=O)c(C(=O)NC(C)c2ccccc2)c(O)c2ccccc21 (configuration not stated)	-9.4	-3.7	-1.2	.	-2.1	0.7	4.7
CC1CCC(N2CCN(C(=O)COc3ccccc3)CC2)CC1 (configuration not stated)	40.1	2.9	4.1	-5.3%	16.3	1.6	3.3
Cc1ccc(-c2nc3ccccc3c(=O)n2-c2ccc(O)cc2)cc1	-5.0	-4.5	-1.2	-12.1%	-6.0	-2.7	-3.7
COc1cc(OC)c2c(c1)O[C@@H](c1ccc(OC)c(OC)c1)[C@H](O)C2	-9.8	-2.5	0.1	2.8%	-1.0	-2.2	5.0
Cc1ccnc(NCc2c(O)ccc3ccccc23)c1	-24.7	-7.0	1.8	-7.2%	-2.2	10.7	0.4
CCOP(=S)(OCC)SCC(=O)NC(C(=O)O)C(C)C (configuration not stated)	-7.1	-3.6	-1.5	0.7%	2.9	6.4	1.0
COc1ccc(C2SCC(=O)Nc3c2c(C)nn3-c2ccccc2)cc1OC (configuration not stated)	-8.0	10.4	1.9	26.7%	1.3	-4.6	-0.8
CC(=Nc1c(C)n(C)n(-c2ccccc2)c1=O)c1c(O)n(Cc2ccccc2)c(=O)[nH]c1=O	-3.4	14.0	8.3	4.7%	0.1	-14.2	3.2
O=c1[nH]c(=O)n(CCC2=CCCCC2)c(O)c1C=NCc1cccnc1	-2.8	-0.2	0.2	2.1%	2.4	-6.9	-1.9
CCN(CC)P(=O)(NC(=O)C(Cl)(Cl)Cl)N(CC)CC.[Cl-].[Cl-].[Cl-].[Nd+3]	-9.6	-9.8	53.0*!	-5.8%&10.2%	-1.1	-3.9&16.2	2.3
C#CCNc1ccncc1S(=O)(=O)NC(=O)NC(C)C	2.1	-4.6	-5.8	.	-7.7	6.3	-3.2

A portion from the list above, as a working copy:
SMILES	ALR H2O2 inh	Calb FLC	HNF4A DNA FP	Vif A3G	LANA-H2B inh	B2AR ag	RanGTP-Imp inh
NC(N)=N/N=C/c1ccc(N(c2ccccc2)c2ccccc2)cc1	93.7*	93.6*	11.3	.	1.4	38.1	23.1*
O=C1C2CCCN2C(c2ccncc2)N1c1ccc(Cl)c(Cl)c1 (configuration not stated)	3.2	-17.2	1.3	-4.9%	3.8	8.5	-0.2
CCCCCn1c(=O)c(C(=O)NC(C)c2ccccc2)c(O)c2ccccc21 (configuration not stated)	-9.4	-3.7	-1.2	.	-2.1	0.7	4.7
CC1CCC(N2CCN(C(=O)COc3ccccc3)CC2)CC1 (configuration not stated)	40.1	2.9	4.1	-5.3%	16.3	1.6	3.3
Cc1ccc(-c2nc3ccccc3c(=O)n2-c2ccc(O)cc2)cc1	-5.0	-4.5	-1.2	-12.1%	-6.0	-2.7	-3.7
COc1cc(OC)c2c(c1)O[C@@H](c1ccc(OC)c(OC)c1)[C@H](O)C2	-9.8	-2.5	0.1	2.8%	-1.0	-2.2	5.0
Cc1ccnc(NCc2c(O)ccc3ccccc23)c1	-24.7	-7.0	1.8	-7.2%	-2.2	10.7	0.4
CCOP(=S)(OCC)SCC(=O)NC(C(=O)O)C(C)C (configuration not stated)	-7.1	-3.6	-1.5	0.7%	2.9	6.4	1.0
COc1ccc(C2SCC(=O)Nc3c2c(C)nn3-c2ccccc2)cc1OC (configuration not stated)	-8.0	10.4	1.9	26.7%	1.3	-4.6	-0.8
CC(=Nc1c(C)n(C)n(-c2ccccc2)c1=O)c1c(O)n(Cc2ccccc2)c(=O)[nH]c1=O	-3.4	14.0	8.3	4.7%	0.1	-14.2	3.2

Carrying on:
SMILES	ALR H2O2 inh	Calb FLC	HNF4A DNA FP	Vif A3G	LANA-H2B inh	B2AR ag	RanGTP-Imp inh
O=C(c1ccc2c(c1)ncn2C1CCCCCC1)N1CCC2(CC1)OCCO2	-2.8	-27.9	-5.5	-7.2%	-1.6	-14.7	-0.2
COC(=O)NC(=C(Cl)Cl)P(=O)(c1ccccc1)c1ccccc1	3.1	12.5	0.9	-8.5%	-7.6	10.3	4.9
CCNC(=S)N1CCn2cccc2C1c1cccnc1 (configuration not stated)	16.1	26.2	-0.7	-6.5%	-5.1	0.0	-1.3
COC(=O)C1=C(c2c(C)noc2C)C[C@@H]2CC[C@H]1N2C(=O)NCCOc1ccc(OC)cc1	-6.8	.	2.3	.	1.3	-0.6	.
CCC(=O)N1N=C2C3CCN(CC3)C2C1c1ccc(C)cc1 (configuration not stated)	-16.6	-1.8	-1.6	.	-2.1	10.7	3.8
OC[C@@H](O)CCl	1.7	-21.7	.	.	0.1	.	-1.7
COc1cc2nc(CN3CC=C(c4ccccc4)CC3)[nH]c(=O)c2cc1OC	2.3	10.8	1.1	.	4.1	14.6	6.2
COc1cccc(-c2nc3ccc(N4CCN(C)CC4)cc3[nH]2)c1	3.1	-9.7	-1.7	-0.1%	0.9	-1.2	-2.6
CCOC(=O)C1=C(N)Oc2cc(C)oc(=O)c2C12C(=O)N1c3c(cccc32)C(C)=CC1(C)C (configuration not stated)	-5.3	16.7	1.9	-3.7%	5.8	2.8	-1.2
Cc1nn(Cc2ccc(Cl)cc2Cl)c(Cl)c1C(=O)Nc1ccc(OC(F)F)cc1	5.8	-28.5	-3.0	3.9%	4.5	-1.2	-3.4
CC(C)CCN1CCN(Cc2c(F)cccc2Cl)CC1CCO (configuration not stated)	-10.8	-12.3	-2.1	14.8%	-1.0	3.5	-1.1
CC(=NCc1ccc2c(c1)OCO2)c1c(O)n(-c2ccccc2)c(=O)[nH]c1=O	-5.9	-10.1	4.6	3.5%	-2.2	3.7	0.1
COP(=O)(Cc1ccc(C#N)o1)OC	-3.6	1.1	-2.8	-12.0%	-4.3	-2.6	0.1
OC(c1ccncc1)(c1ccc(F)cc1)c1ccc(F)cc1	-14.4	-4.1	-1.9	.	4.1	2.0	2.7
C=CCn1c(O)c(/C=C/C=Nc2ccccc2)c(=O)[nH]c1=O	0.8	-4.8	32.6	6.2%	12.4	-2.0	28.8*
CC/C(=N\Nc1cccc2ccccc12)c1c(O)[nH]c(=O)[nH]c1=O	.	14.3	6.2	31.4%	2.8	3.9	-4.6
CCCCn1c(=O)c(C(=O)Nc2ccccc2)c(O)c2ccccc21	.	-36.0	-1.8	4.9%	2.6	4.7	0.9
COc1ccc(NP2(=O)NCCCN2)cc1	.	.	0.2	2.3%	.	2.1	.
O=C(c1ccccc1[N+](=O)[O-])N1CCC2(CC1)OCCO2	-2.8	-11.3	-3.4	.	-4.3	6.9	-3.2
CCOc1cc(C2C(C#N)=C(N)Oc3c2c(=O)oc2ccccc32)ccc1OC(=O)c1cccs1 (configuration not stated)	-4.6	0.8	-0.5	.	1.7	-14.3	-1.7
OC(Cn1c2ccccc2c2ccccc21)C[n+]1ccccc1 (configuration not stated)	-14.7	21.0	1.8	1.1%	0.4	-5.2	-0.5
C[C@]12CCC3C(CC[C@H]4C[C@@H](O)CC[C@]34C)C1C/C(=N/O)[C@@H]2O (some centres not stated)	-1.3	.	-1.4	-1.4%	-5.2	-8.3	.
CCN1CCN(Cc2ccc(C)cc2)CC1	0.9	8.5	1.5	2.9%	-1.5	-5.3	3.6
Cc1ccn2nc(S(=O)(=O)Nc3c(F)cccc3F)nc2n1	2.1	-6.2	-0.4	15.7%	-1.9	1.2	4.1
COc1ccc(CCC(=O)NCCc2cnc[nH]2)cc1	.	-12.9	-1.9	-3.0%	0.6	2.7	-3.4
COc1ccc(S(=O)(=O)N2CCOCC2)cc1NC(=O)COC(=O)Cc1ccccc1	2.2	.	-1.8	.	-3.6	2.2	.
COc1cccc(N2C(=O)NC(=O)/C(=C\c3cn(C)c4ccccc34)C2=O)c1	-2.4	-13.6	0.7	-19.4%	2.2	4.8	-2.3
COc1ccccc1OCC(=O)N1CCN(Cc2ccc3c(c2)OCO3)CC1	-2.8	-16.4	0.6	6.2%	-0.5	-7.5	1.7
COc1ccc2[nH]cc(CCN(C)C)c2c1	.	.	-0.9	14.7%	1.2	1.1	-2.0
N#CC1c2ccccc2-n2nncc2CN1S(=O)(=O)c1ccc(Cl)cc1 (configuration not stated)	.	.	2.8	2.0%	.	-11.6	.
O=C1NC(=S)N(c2ccc(F)cc2)C(=O)/C1=C\c1ccoc1	.	.	-11.7	18.8µM*	.	0.6	.
O=C(O)C(Cc1cnc[nH]1)NS(=O)(=O)c1ccc(Br)cc1 (configuration not stated)	.	5.0	1.1	2.1%	0.3	10.1	2.5
Oc1ccc(C2=CCNCC2)cc1O	99.1*	-6.4	-2.2	.	10.9	-5.9	1.0
CN1CCN(Cc2cc(=O)n3ccsc3n2)CC1	-13.7	5.9	-1.8	-2.0%	-3.5	-2.0	1.6
C[C@]12CCC3C(CC[C@H]4C[C@@H](O)CC[C@]34C)C1C[C@@H](O)[C@@H]2O (some centres not stated)	.	.	-1.3	-6.2%	.	-3.1	.
COC1C(O)C(C)OC(OC2CCC3(C)C(CCC4C3C(O)CC3(C)C(C5=CC(=O)OC5)CCC43O)C2)C1O (configuration not stated)	.	.	-2.5	4.1%	.	8.3	.
Cc1onc(-c2ccccc2)c1C(=O)N1CCC2(CC1)OCCO2	0.1	10.1	-1.1	-3.2%	-1.1	6.9	2.1
CC(C)(C)P(=O)(NCc1ccccc1)c1ccccc1 (configuration not stated)	-9.4	1.5	1.4	3.3%	-5.7	5.0	.
C=CCn1c(O)c(C(C)=NCc2ccco2)c(=O)[nH]c1=O	-0.8	2.5	2.4	15.7%	5.5	11.8	2.5
